Cruzain noTriton = inhibitors of Trypanosoma cruzi cruzain without detergent; P25779; AID 1476; 2.3% of 200,000 active; purified cruzain, Z-FR-AMC fluorescence, no detergent; Potency, µM, without a hit: max response, negative = inhibition, usual class: inhibitors; active = well fitted curve in the direction sought with a large enough effect; inconclusive = small, poorly fitted or top-dose-only effect, or another doubt; inactive = no such curve, though single readings can be large; an effect the other way counts as inactive or inconclusive;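 note: plate controls were enzyme without inhibitor for no effect and buffer without enzyme for full effect; nearly all actives have a fitted effect of over 40% in size; top concentration of the series not given in the record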
Target sequence (P25779 123-467 limits assumed): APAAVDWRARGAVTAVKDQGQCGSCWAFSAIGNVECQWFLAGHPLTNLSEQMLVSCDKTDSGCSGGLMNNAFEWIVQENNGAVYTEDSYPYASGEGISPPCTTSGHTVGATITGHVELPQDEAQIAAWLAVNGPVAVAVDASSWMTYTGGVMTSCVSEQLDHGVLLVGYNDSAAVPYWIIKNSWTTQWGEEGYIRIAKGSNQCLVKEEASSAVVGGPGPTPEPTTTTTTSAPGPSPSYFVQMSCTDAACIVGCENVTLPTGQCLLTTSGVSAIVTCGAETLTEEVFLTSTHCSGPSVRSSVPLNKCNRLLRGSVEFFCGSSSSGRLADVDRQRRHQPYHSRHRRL
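Purified cruzain at 1.5 nM, pre-incubated 15 min with compound at room temperature in 100 mM sodium acetate pH 5.5, 5 mM DTT, 0.00005% Triton X-100. Reaction started with 2 uM Z-FR-AMC; AMC fluorescence increase over 60 s gives rate.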
LASV entry inh = inhibitors of Lassa virus binding or cell entry | Lassa virus pseudotype entry inhibition, cell reporter; control for the full effect not named in the record | Potency, µM (series often up to 37.9 µM), for inactives: at the highest dose activity change, negative = inhibition, usual class: inhibitors | 1.2% of 300,000 active; active means well fitted inhibition curve with a large enough effect; inconclusive means small, poorly fitted or top-dose-only effect, or effect the other way; inactive means flat fitted curve, though single readings scatter; tested in HEK293 cells; note: % is set by controls: 0 for no effect and ±100 for the full control effect; nearly all actives have a fitted effect of over 50% in size; luciferase read-out
Marburg entry inh = blocks Marburg virus binding to or entry into cells; Marburg virus pseudotyped entry inhibition, cell reporter; control for the full effect not named in the record; about a third of the inactives were read at about 46 µM; Potency, µM (titrated, usually from 37.8 µM), inactives show at the highest dose activity change, negative = inhibition, most hits filed as inhibitors; 1.8% of 300,000 active; AID 540276; active = well fitted inhibition curve with a large enough effect; inconclusive = small, poorly fitted or top-dose-only effect, or effect the other way; inactive = flat fitted curve, though single readings scatter; tested in HEK293 cells; about a fifth of its hits are not listed in these tables; note: % is set by controls: 0 for no effect and ±100 for the full control effect; luciferase read-out
NS1 function inh = blocks influenza NS1 protein function; S. cerevisiae slowed by influenza A NS1, growth recovery by OD600; Potency, µM (highest dose often 46.1 µM), for the others: top-dose activity, positive = more growth; 0.4% of 270,000 active; AID 2326; note: actives are rising curves; nearly all actives have a fitted effect of over 50% in size
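Read-out: OD600 growth recovery of NS1-expressing budding yeast. Cells grown overnight at 30C in -URA glucose medium, washed, resuspended and diluted 1:100 in 2% galactose assay medium, pH 6.0. Same strain lacking NS1 served as positive control.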
2A StopGo = lowers the luciferase signal of an FMDV 2A StopGo reporter; human cells with a luciferase reporter of 2A StopGo recoding; control for the full effect not named in the record; 1.2% of 410,000 active; AID 1159524; Potency, µM (highest dose often 57.9 µM), for inactives: at the highest dose signal change, negative = less light; active = well fitted falling curve with a large enough effect; inconclusive = small, poorly fitted or top-dose-only effect; inactive = no such curve, though single readings can be large or run the other way; tested in HEK293T cells; note: % is set by controls: 0 for no effect and ±100 for the full control effect; nearly all actives have a fitted effect of over 45% in size; luciferase light after 4 h
Cruzain Triton = inhibitors of Trypanosoma cruzi cruzain with detergent; P25779; purified cruzain, Z-FR-AMC fluorescence, 0.01% Triton; Potency, µM, for inactives: max response, negative = inhibition, hits mostly inhibitors; 0.43% of 200,000 active; active = well fitted curve in the direction sought with a large enough effect; inconclusive = small, poorly fitted or top-dose-only effect, or another doubt; inactive = no such curve, though single readings can be large; an effect the other way counts as inactive or inconclusive;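 note: plate controls were neutral wells for no effect and buffer without enzyme for full effect; nearly all actives have a fitted effect of over 40% in size; top concentration of the series not given in the record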
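Detergent-containing arm of a paired screen for aggregation-based inhibition: 0.01% Triton X-100 present. Cruzain at 1.5 nM cleaved 2 uM Z-FR-AMC at pH 5.5 with 5 mM DTT; AMC fluorescence gain over 60 s measured activity.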
SARS PLpro yeast = SARS-CoV PLP inhibition in yeast | AID 485353 | S. cerevisiae expressing SARS-CoV PLpro, growth rescue; control for the full effect not named in the record | 0.19% of 330,000 active | Potency, µM (highest dose often 32.9 µM), inactives show top-dose activity, positive = growth rescue; note: 0% is about no effect; nearly all actives have a fitted effect of over 55% in size; growth read by luminescence after 48 h
RE007 growth inh = less growth of the S. pombe RE007 Vpr strain; S. pombe RE007 Vpr strain, BacTiter-Glo ATP luminescence, 24 h; control for the full effect not named in the record; Potency, µM (top dose mostly 92.2 µM), inactives show at the highest dose activity change, negative = less growth; 0.21% of 360,000 active; AID 651644; active = well fitted falling curve with a large enough effect; inconclusive = small, poorly fitted or top-dose-only effect; inactive = no such curve, though single readings can be large or run the other way;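 note: % is set by controls: 0 for no effect and ±100 for the full control effect; nearly all actives have a fitted effect of over 50% in size; the assay follows cell death caused by Vpr and the record does not say whether a fall means rescue or toxicity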
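Fission yeast strain RE007, carrying one chromosomally integrated HIV-1 vpr copy, was seeded at OD 0.01 in PMG+AL medium with 23 nL pinned compound. After 24 h at 30 °C and 99% humidity, viability was read by BacTiter-Glo luminescence.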
Numbers without * were called inactive; ? = inconclusive; . = not tested or not shown; & = joins results of further samples; [ ] = another dose, or the depositor's remark. Unless noted, calls come from the whole dose curve; as a rule, active means well fitted rising curve with a large enough effect; inconclusive means small, poorly fitted or top-dose-only effect; inactive means no such curve, though single readings can be large or run the other way. Potency is the fitted concentration of half-maximal effect.

SMILES | Cruzain noTriton | LASV entry inh | Marburg entry inh | NS1 function inh | 2A StopGo | Cruzain Triton | SARS PLpro yeast | RE007 growth inh
COc1ccc(-c2nc(CN3CCN(c4cc(C)nc(C)c4)CC3)c(C)o2)c2ccccc12 | . | 11µM* | ? | -1% | -8% | . | 2% | 1%
O=C(CN(c1ccc(Cl)cc1)S(=O)(=O)c1ccccc1)N1CCN(c2ccccc2)CC1 | 1% | ? | ? | 15% | -20% | -0.3% | -3% | 37%[3.69 µM]
CCOc1cc(CNc2ccc3c(c2)OCCO3)cc(Br)c1OCC | -1% | -22% | ? | 13% | 32µM* | -1.8% | -8% | -2%
COc1cccc(S(=O)(=O)NCC(=O)N2CCCCCC2)c1 | . | . | . | 8% | 0% | . | 0% | -14%
Cc1cccc(NC(=O)CSc2ncnc3c2oc2ccccc23)c1 | 9% | . | . | -4% | ? | -0.1% | -6% | -2%
C=CCNC(=S)Nc1c(N)n(C)c(=O)n(C)c1=O | . | 18% | 4%[46.1 µM] | 1% | -21% | . | 1% | 12%
COc1cc(S(=O)(=O)N2CCN(C(=O)c3ccco3)CC2)c(OC)cc1C | . | . | . | -5% | 22% | . | 6% | -10%
O=C(Nc1ccccc1)c1csc(-c2ccccc2)n1 | . | -17% | ? | -35% | 44%[activator] | . | -4% | -20%
O=C(CSc1ncn[nH]1)Nc1ccc([N+](=O)[O-])cc1Br | 23% | ? | ? | 12% | -3% | -2.5% | 11% | 83%
COc1ccc(CNC(=O)/C=C/c2ccc(OCCCF)cc2)cc1 | -3% | 0% | 2% | -20% | 15% | -0.6% | 1% | 32%
CCOP(=O)(OCC)C(NC(=O)c1cccc2ccccc12)C(Cl)(Cl)Cl (stereo not given) | ? | -14% | ? | -2% | -1% | 1.9% | 11% | 9%
COc1ccc(CN2CCN(C(C)C(=O)NC(C)c3ccc(F)cc3)CC2)cc1F (stereo not given) | . | -10%[46.1 µM] | ? | 11% | -14% | . | . | 1%
COC(=O)c1ccc2nc(-c3ccc4c(c3)OCO4)cn2c1 | . | 2µM* | ? | 0% | 0% | . | 0% | -16%
CC1CN(C(=O)CN2C(=O)NC3(CCCC3)C2=O)C(=Nc2cccc(S(=O)(=O)N(C)C)c2)S1 (stereo not given) | . | -23% | -14% | . | -6% | . | -6% | 7%
COc1ccc(C(=O)Nc2c(N)nc(SCC(=O)NCC3CCCO3)[nH]c2=O)cc1 (stereo not given) | . | 4% | 12% | 3% | -7% | . | 1% | -3%
O=C(NC1CCCCC1)C(c1ccc2ncccc2c1)N(Cc1ccco1)C(=O)c1ccc2c(c1)OCCO2 (stereo not given) | 3% | . | 3% | -12% | 2% | -3.4% | -11% | -1%
CCc1ccc(C(=O)NNc2ccc(F)cc2F)cc1 | . | ? | -9% | -53% | 24% | . | 1% | 167%
O=C(NC(=S)N1CCOCC1)C12CCC3CC(CC(C3)C1)C2 | 1% | 2% | 9% | -2% | 0% | 0.8% | ? | -4%
CC(C)c1ccc(CN2CCC(Oc3ccc(C(=O)N4CCCC4)cc3)CC2)cc1 | . | . | . | 1% | -29% | . | -4% | 5%
COc1ccccc1CNc1nc2nc(C)c(Cl)c(C)n2n1 | -8% | 17%[46.1 µM] | ? | . | 0% | 0.3% | . | .
Cc1ccc(NC(=O)Cn2c(=O)ccc3cc(S(=O)(=O)N4CCC(C)CC4)ccc32)cc1Cl | -13% | -28%[46.1 µM] | . | . | -11% | 0.0% | . | .
CC1Sc2ccc(C(=O)OCc3ccccc3Cl)cc2NC1=O (stereo not given) | . | -18%[46.1 µM] | ? | . | 83%[activator] | . | -3% | 1%
COCCNC(=O)c1nn(-c2ccc(C)cc2)c(=O)c2c1c1ccccc1n2C | -6% | -13%[46.1 µM] | 10%[46.1 µM] | . | -20% | -3.7% | . | .
CCOc1ccc(C(=O)NCC(=O)N2CCN(c3ccccc3O)CC2)cc1 | . | -13%[46.1 µM] | -13%[46.1 µM] | 7% | -10% | . | -2% | 16%
C[C@@H](C(=O)O)[C@H]1C[C@]1(C)[C@H](NC(=O)OCc1ccccc1)c1ccccc1 | 5%&0% | -4% | 33% | -7% | -11% | -0.6%&-6.9% | 3% | 10%
CCCC(=O)Nc1c(-c2ccccc2OC)c(=O)c2ccccc2n1C | . | ? | 0% | 0% | -3% | . | 1% | -5%
COc1ccc(Cl)cc1NC(=O)CN(C)C(=O)Cn1cnnn1 | . | 13%[46.1 µM] | ? | . | -12% | . | 0% | -12%
O=C(c1ccc2nc[nH]c2c1)N1CCN(c2cccc(C(F)(F)F)c2)CC1 | . | ? | 0% | 16% | -23% | . | 23% | 3%
C[C@@H](NC(=O)CN(c1ccccc1)S(=O)(=O)N(C)C)c1ccccc1 | 15% | 16%[46.1 µM] | 1%[46.1 µM] | . | -24% | -0.3% | . | .
C[C@H](NC(=O)c1ccccc1)C(=O)Nc1nc(-c2ccccn2)cs1 | . | -29% | ? | . | ? | . | -1% | 1%
CCN1CCC(=NNC(=O)c2ccc(C)c([N+](=O)[O-])c2)CC1 | 6% | 19% | 1%[46.1 µM] | -4% | 49%[activator] | 3.4% | -1% | 1%
CCn1cc(C(=O)NCc2ccc(F)cc2)c(=O)c2cc(S(=O)(=O)N(C)C)ccc21 | 5% | ? | 9%[46.1 µM] | . | -3% | -7.2% | . | .
O=C(COc1ccc(Cl)cc1Cl)OCn1nnc2ccccc2c1=O | 5% | 2% | 2% | 2% | -6% | -8.0% | -5% | 12%
O=C1CSC(c2ccccc2)N1CC(O)c1ccc([N+](=O)[O-])cc1 (stereo not given) | . | -13% | -12%[46.1 µM] | . | -16% | . | -2% | 7%
Cc1ccc(C(=O)Nc2ccc(N3CCN(C(=O)c4ccco4)CC3)cc2)c(Cl)c1 | . | ? | -6%[46.1 µM] | -2% | -1% | . | -3% | -4%
Cc1occc1-c1nnc(SCC(=O)NC2CC2)n1C | . | . | . | 10% | -10% | . | -2% | 17%
CCOC(=O)C1(c2ccccc2)Oc2ccccc2C(c2ccc(OC)cc2)=C1C(=O)OC (stereo not given) | 5% | . | . | . | -26% | -1.9% | -17% | 5%
CC(=O)Nc1ccc(NC(=O)CSc2nncn2C)cc1 | . | -10%[46.1 µM] | 10%[46.1 µM] | 11% | -4% | . | 3% | 10%
CCOc1ccc(CC(=O)Nc2cccc(-c3ccc4nnc(C)n4n3)c2)cc1 | . | 5%[46.1 µM] | -18%[46.1 µM] | . | -6% | . | 1% | -9%
Cc1cc(C(=O)NNc2ccc(C(C)C)cc2)n(C(C)(C)C)n1 | . | . | . | -3% | -14% | . | -3% | 5%
O=C(CN1C(=O)C2C3C=CC(C3)C2C1=O)N1CCc2ccccc2C1 (stereo not given) | 13% | 24% | 17% | 4% | 11% | 0.2% | -1% | -7%
O=C(Nc1cc(C(F)(F)F)ccc1N1CCOCC1)C1CCCO1 (stereo not given) | . | 9% | 1% | . | -3% | . | 2% | -4%
Cc1ccc2c(c1C)NC(C(=O)O)C1CC=CC21 (stereo not given) | 6% | 11% | -10%&-10%&-10% | 8%&9% | . | -26% | 4%&2% | 0%
CCn1cc(S(=O)(=O)Nc2cc(F)ccc2C)cn1 | . | 12% | ? | 2% | 16% | . | 0% | 5%
Cc1c(Cl)cccc1NC(=O)CCC(=O)NNC(=O)c1ccco1 | -5% | -6% | 10% | ? | -17% | 2.5% | 0% | -6%
COc1ccccc1NC(=O)C1=C(C)Nc2ncnn2C1c1ccccn1 (stereo not given) | 5% | -4%[46.1 µM] | 3%[46.1 µM] | . | 9% | -1.8% | . | .
COc1ccccc1NC(=O)c1cc[n+]([O-])cc1 | . | . | . | -9% | -4% | . | 3% | 1%
CCN1CCSc2ccc(C(=O)NCc3ccccc3F)cc21 | . | . | . | -15% | 3% | . | -4% | -10%
CCCC(=O)Nc1c(-c2ccccc2)c(=O)c(C)nn1-c1ccc(C)cc1 | . | . | . | -35% | -9% | . | -1% | -2%
Cc1cc(C)c(OCCNC(=O)c2ccccc2Sc2ccccc2C#N)c(C)c1 | -2% | ? | ? | -15% | ? | -5.2% | -19% | -1%
O=C1SC(SCc2ccccc2)=N/C1=C\c1ccc(C(=O)O)cc1 | . | 2% | 16%[46.1 µM] | 6% | -25% | . | 1% | 5%
O=C(O)Cn1c(O)c(C=Nc2ccccc2)sc1=S | -8%&3% | 27%&9% | ? | ? | 11%&17% | -4.9%&-4.9% | -3%&5% | 5%&6%
Fc1cccc(CCN2C(=S)NC[C@@H]2CC2CCCCC2)c1 | . | . | . | -33% | -13% | . | 0% | -21%
O=C(Nc1ccc(N2CCN(C(=O)c3ccco3)CC2)cc1)c1ccc(Br)cc1 | . | . | . | -5% | -7% | . | 11% | 4%

Among those listed so far, these contain two or more sulfur atoms.
SMILES | Cruzain noTriton | LASV entry inh | Marburg entry inh | NS1 function inh | 2A StopGo | Cruzain Triton | SARS PLpro yeast | RE007 growth inh
CC1CN(C(=O)CN2C(=O)NC3(CCCC3)C2=O)C(=Nc2cccc(S(=O)(=O)N(C)C)c2)S1 (stereo not given) | . | -23% | -14% | . | -6% | . | -6% | 7%
O=C1SC(SCc2ccccc2)=N/C1=C\c1ccc(C(=O)O)cc1 | . | 2% | 16%[46.1 µM] | 6% | -25% | . | 1% | 5%
O=C(O)Cn1c(O)c(C=Nc2ccccc2)sc1=S | -8%&3% | 27%&9% | ? | ? | 11%&17% | -4.9%&-4.9% | -3%&5% | 5%&6%

Some entries already given, reduced to Cruzain Triton, Marburg entry inh and RE007 growth inh:
canonical_smiles | Cruzain Triton | Marburg entry inh | RE007 growth inh
CCN1CCSc2ccc(C(=O)NCc3ccccc3F)cc21 | . | . | -10%
O=C(Nc1cc(C(F)(F)F)ccc1N1CCOCC1)C1CCCO1 (stereo not given) | . | 1% | -4%
